# Source: PubChem BioAssay (National Center for Advancing Translational Sciences (NCATS))
# gsp antag: qHTS for Antagonists of gsp, the Etiologic Mutation Responsible for Fibrous Dysplasia/McCune-Albright Syndrome: qHTS | gsp-mutant cells, cAMP HTRF, 30 min; control for the full effect not named in the record | Potency, µM (doses to about 76.9 µM), without a hit: top-dose activity change, negative = inhibition, usual class: inhibitors | 340,000 compounds, 0.4% hits | AID 624288, 2012; active = falling curve of any shape with a large fitted effect; inconclusive = falling curve, mostly with a smaller effect; inactive = flat or rising curve; cell line not stated here;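 also: intracellular cAMP measured with PDE inhibitor Ro 20-1724 present during compound exposure; potency is read from the fitted curve at half-maximal effect; % is scaled to controls: 0 for no effect and ±100 for the full control effect; nearly all actives have a fitted effect of over 65% in size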
#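 HTRF cAMP measurement after 30 min RT detection following 30 min, 37C compound treatment alongside […] (added as 300 uM solution) in G418-selected cells seeded at 2000/well and grown 16–24 h.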
# D2 ag: Beta-Arrestin HTS for Positive Allosteric Modulators of the Human D2 Dopamine Receptor: Agonists; D(2) dopamine receptor (Homo sapiens), P14416; DiscoveRx PathHunter D2 beta-arrestin, luminescence, 90 min; 100% = 57 uM dopamine signal; activation, % (test concentration not listed); 360,000 compounds, 0.084% hits; AID 624465, 2012; in the data active = activation above about 40%; inconclusive = about 15% to 40%; inactive = below about 15%; also: compound concentration not given in the record; the text of the record calls up to 30% inactive
# Target sequence (P14416 whole entry, looked up): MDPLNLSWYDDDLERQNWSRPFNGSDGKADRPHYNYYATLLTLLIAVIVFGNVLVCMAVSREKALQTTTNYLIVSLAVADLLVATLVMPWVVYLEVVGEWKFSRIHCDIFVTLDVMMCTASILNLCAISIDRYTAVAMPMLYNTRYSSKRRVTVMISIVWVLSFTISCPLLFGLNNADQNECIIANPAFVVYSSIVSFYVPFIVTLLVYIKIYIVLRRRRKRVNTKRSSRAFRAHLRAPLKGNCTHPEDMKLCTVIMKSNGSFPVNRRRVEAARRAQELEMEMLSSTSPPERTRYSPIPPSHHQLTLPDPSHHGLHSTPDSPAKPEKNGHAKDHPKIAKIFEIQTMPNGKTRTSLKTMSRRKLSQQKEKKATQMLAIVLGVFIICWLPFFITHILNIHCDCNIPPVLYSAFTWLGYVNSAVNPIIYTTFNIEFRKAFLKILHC
#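 DiscoveRx PathHunter D2 beta-arrestin cells (2,100/well) attached overnight, then compound-stimulated 90 min at 37 C in HBSS/10 mM HEPES/0.1% Tween-20 buffer; beta-galactosidase complementation read by luminescence after 1 h at ambient temperature. Dopamine 57 uM final (EC100) as control.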
# D2 PAM: Beta-Arrestin HTS for Positive Allosteric Modulators of the Human D2 Dopamine Receptor: Potentiators | AID 624464, 2012 | potentiation, % (no concentration beside the values) | 360,000 compounds, 0.23% hits | DiscoveRx D2 beta-arrestin cells, luminescence, 90 min; 100% = 57 uM dopamine signal; active = potentiation of 50% or more; inconclusive = 30% to 50%; inactive = 30% or less;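 also: compound concentration not given in the record; tested on top of an EC20 dose of dopamine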
#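 PathHunter beta-arrestin assay in DiscoveRx D2 cells. Compounds were added with an EC20 of dopamine (50 nM final) for 90 min at 37 deg C. Luminescence was read 1 h after detection reagent, with 57 uM dopamine as the EC100 control.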
# CtBP-E1A blk: qHTS Assay for Inhibitors of the CtBP/E1A Interaction; AID 651724, 2012; AlphaScreen GST-E1A/His-CtBP binding, 1536-well; active compounds read low; control for the full effect not named in the record; CtBP / adenovirus E1A interaction (AlphaScreen); activity change, % (test concentration not listed); 340,000 compounds, 0.49% hits; in the data active means activity change below about -65%; inconclusive means about -30% to -65%; inactive means above about -30%; also: % is scaled to controls: 0 for no effect and ±100 for the full control effect
#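 In 5 uL wells, 23 nL compound meets equimolar GST-E1A and His-CtBP (5X stock 125 nM each) for 2 h, 37 °C. Beads (5X, 50 ug/mL) then 1 h, 37 °C, dark.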
# Six1-Eya2 blk: qHTS Assay for Inhibitors of the Six1/Eya2 Interaction; Homeobox protein SIX1 (Homo sapiens) + Protein phosphatase EYA2 (Homo sapiens), …; activity change, % (no concentration beside the values); AlphaScreen GST-Six1/His-Eya2 binding, biochemical; active compounds read low; control for the full effect not named in the record; 360,000 compounds, 0.56% hits; AID 651725, 2012; in the data active = activity change below about -65%; inconclusive = about -30% to -65%; inactive = above about -30%; also: % is scaled to controls: 0 for no effect and ±100 for the full control effect
#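 Homogeneous AlphaScreen proximity assay pairing GST-Six1 with His-tagged Eya2 (added as 5X mix: 250 nM and 500 nM) in 50 mM Tris pH 8.0, 300 mM NaCl, 1 mM TCEP. Glutathione donor and nickel acceptor beads; 1 h, 37 °C, dark.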
# gsp agonist: qHTS for Agonist of gsp, the Etiologic Mutation Responsible for Fibrous Dysplasia/McCune-Albright Syndrome: qHTS; gsp mutant cells, cAMP HTRF, 30 min; control for the full effect not named in the record; Potency, µM (series often up to 76.9 µM), for inactives: at the top dose activation (cAMP increase), most hits filed as activators; 340,000 compounds, 0.13% hits; AID 624287, 2012; active = well fitted activation curve with a large enough effect; inconclusive = small, poorly fitted or top-dose-only effect, or another doubt; inactive = no such curve, though single readings can be large or run the other way; cell line not stated here;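 also: phosphodiesterase inhibitor Ro 20-1724 added with compounds to block cAMP breakdown; potency is read from the fitted curve at half-maximal effect; nearly all actives have a fitted effect of over 60% in size; about a fifth of the inactives were tested at one dose only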
#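 Cells in DMEM/10% FBS with G418 were pretreated with compounds in DMSO plus […] (300 uM stock) for 30 min at 37C. cAMP was measured by HTRF (cAMP-d2 plus anti-cAMP antibody-K) after 30 min at room temperature.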
# * = called active by the depositor; ? = inconclusive; . = not tested or not shown; & = joins results of further samples; [ ] = remark or other dose.
SMILES,gsp antag,D2 ag,D2 PAM,CtBP-E1A blk,Six1-Eya2 blk,gsp agonist
CCN(CC)CCC(c1cc(OC)c(OC)c(OC)c1)c1c(OC)cc(OC)c2c(-c3ccccc3)cc(=O)oc12 (configuration not stated),2%,-3.6,-20,.,-16,-15%
CCCCN1C(=O)C(CC(=O)NCc2cccc3ccccc23)CC(C(=O)N(C)C)=C1C (configuration not stated),.,-2.1,.,-8,2,?
COc1ccc(-n2c(C)nc3sc4c(c3c2=O)CCC4)cc1,0%,3.1,-8,.,-8,8%[15.4 µM]
CC(=O)Nc1cc(-c2cccc(CO)c2)cn2c(-c3ccc(F)cc3)cnc12,.,-2.6,-1,-1,-8,.
Nc1nc2ccc(Cl)cc2[nH]1,9%,5.8,-4,3,12,1%
Cc1ccc(NNC(=O)C(=O)N2CCCCC2)cc1,10%,-3.7,-1,18,10,12%
COc1ccc(OCC(O)CN2CCOCC2)cc1 (configuration not stated),12%,1.6,1,.,4,-8%
Cc1ccc(CCSCC(=O)O)cn1,8%,-3.0,-12,8,1,-7%
O=C(O)c1cccc(OCCN2CCCC2=O)c1,-3%,1.0,-8,5,1,0%[15.4 µM]
O=C(CCc1ccc(S(=O)(=O)N2CCOCC2)cc1)Nc1ccc(F)c(F)c1F,1%,-3.8,-3,0,2,17%
CC(C)NC(=O)c1ccc2sc([C@H]3C[C@H](O)[C@@H](CO)O3)nc2c1,.,-5.1,0,0,2,.
CCc1nc(Nc2ccc(N3CCN(C(C)=O)CC3)cc2)c2oc3ccccc3c2n1,-4%,1.4,?,-5,-17,25%
CC(C)c1ccc(NC(=O)N2CCOCC2)cc1,9%,-4.1,-6,-2,4,10%
Cc1ccc(NC(=O)c2ccc(S(=O)(=O)N3CCCCCC3)cc2)nc1,-15%,-4.8,-26,-25,2,-7%[15.4 µM]
CC1CCC(C(C)C)C(OC(=O)CSc2nccc(=O)[nH]2)C1 (configuration not stated),-24%,-2.7,-6,2,2,-21%
Fc1cccc(Cl)c1COc1ccc(-c2nnco2)cc1,-6%,-1.0,1,-3,-4,10%
O=C(Nc1ccc(N2CCN(C(=O)c3ccccc3)CC2)cc1)c1ccc2c(c1)OCCO2,?,-1.2,18,-3,-12,?
CC(=O)c1ccc(Nc2nc(C(N)c3ccccc3)cs2)cc1 (configuration not stated),.,-6.4,-10,-14,-10,.
CN(Cc1ccccc1)c1nc2c(c(=O)n(C)c(=O)n2C)n1CCSc1ncccn1,-3%,-6.7,-8,0,1,?
Cc1cc(-c2nc(C)c(-c3nnc(SCC(=O)Nc4ccc(Cl)cc4)n3C)s2)no1,3%,-2.2,-5,10,-5,20%[15.4 µM]
COc1ccc(C2C3(C#N)C(N)=NC(OC)(OC)C23C#N)cc1 (configuration not stated),9%,-0.7,-4,-23,-21,-6%[15.4 µM]
OCCn1c(SCCOc2ccccc2)nc2ccccc21,5%,-0.3,11,6,1,-14%
CCCn1c(N)c(N(CCOC)C(=O)c2ccc(F)cc2F)c(=O)[nH]c1=O,7%,-1.9,-1,2,1,?
Cn1c(=O)c2c(nc(Oc3ccc4c(c3)OCO4)n2Cc2ccc(F)cc2)n(C)c1=O,4%,0.1,1,2,2,-39%[inhibitor]
COc1ccccc1NS(=O)(=O)c1ccc(Cl)c(NC(=O)C(C)N2C(=O)c3ccccc3C2=O)c1 (configuration not stated),-16%,1.3,-14,-6,-11,-11%
CC1=CC2=NC(=O)/C(=C/c3coc4ccc(Cl)cc4c3=O)C(=N)N2O1,-22%,1.1,0,-4,-4,0%[15.4 µM]
COc1cccc(NC(=O)COc2ccc(N3CC(C(=O)NCC(C)C)CC3=O)cc2)c1 (configuration not stated),-5%,-0.5,-4,-5,3,26%
O=C1OC(/C=C/c2ccc(Cl)cc2)=NC/1=C/c1ccco1,2%,-7.0,-1,?,-3,-18%
CC(C)C(NCc1c(Cl)cccc1Cl)C(=O)O (configuration not stated),14%,0.3,-10,19,5,10%
O=C(/C=C/c1ccccc1Cl)N(Cc1ccc(Cl)cc1)C1CCS(=O)(=O)C1 (configuration not stated),?,-0.3,-8,4,1,-10%
COc1ccccc1-c1ccc(SCc2ccc(F)cc2)nn1,-8%,13,-9,-7,0,2%
Cc1cc(=O)oc2cc(OC(C)C(=O)NCCCn3ccnc3)ccc12 (configuration not stated),5%,-3.6,-5,-7,3,-2%
COCC1CCCN(C(=O)c2ccc(OC3CCN(Cc4ccccn4)CC3)cc2)C1 (configuration not stated),11%,-0.5,1,-23,7,38%
Cc1ccccc1NC(=O)Cc1nc(COC(=O)C(NC(=O)c2ccccc2C)C(C)C)cs1 (configuration not stated),-15%,-3.8,-14,3,4,-34%[inhibitor]
O=C(NCCc1ccccc1)C1(S(=O)(=O)c2ccc(Cl)cc2)CC1,2%,2.4,-10,4,4,?
Cc1cc(C)nc(NS(=O)(=O)c2ccc(NC(=O)CSc3nc4ccccc4[nH]3)cc2)n1,-2%,-4.5,-13,-16,-23,3%
O=C1Oc2ccccc2C(=O)/C1=C\N1CCN(c2ccccc2)CC1,-26%,-1.1,-11,5,7,34%[15.4 µM]
CC(=O)Nc1ccc(-c2ccc(NC(C)=O)c(O)c2)cc1O,-9%,?,9,-14,6,-65%[inhibitor]
COC(=O)c1ccccc1OCc1cccc(C)n1,6%,-1.5,-12,-1,0,-3%
CCOc1ccc(CNC(=O)C2CCN(S(=O)(=O)N3CCCC3)CC2)cc1OC,2%,-1.0,0,2,2,18%
CCN(c1ccccc1)S(=O)(=O)c1ccc(OC)c(NC(=O)Cc2ccc(OC)c(OC)c2)c1,?,0.4,-1,0,-9,-5%
Cc1ccc2oc(=O)c3cc(C(=O)NCCN4CCc5ccccc5C4)sc3c2c1,7%,-3.4,-7,-20,-17,-35%[inhibitor]
CN1CCN(CCCN2c3ccccc3Sc3ccc(C(F)(F)F)cc32)CC1,18%&8%&2%,-2.7&-3.3&2.4,-29&-28&-26,15&-3&-24,-15&-12&-1,?
Cc1ccc(C(c2c(C)[nH][nH]c2=O)c2c(C)[nH][nH]c2=O)cc1[N+](=O)[O-],7%,-6.3,-18,3,-9,17%
COc1ccc(-c2cc(C(=O)OCC(=O)NC3CC3)c3ccccc3n2)cc1,-15%,-3.0,-1,.,37,?
Cc1cc2c(cc(C(=O)OCC(=O)NC3CCCCC3)n2C)o1,-1%,-2.8,-1,-6,18,-6%[15.4 µM]
O=C(NCc1ccc(C(F)(F)F)cc1)C1CC(c2c(Cl)cccc2Cl)=NO1 (configuration not stated),6%,1.5,-6,5,5,?
Cc1ccc(N2CC(C(=O)N3CCC(C(=O)NC(C)(C)C)CC3)CC2=O)cc1 (configuration not stated),-5%,-2.8,-3,0,-1,6%

# Two compounds picked at random from those above:
SMILES,gsp antag,D2 ag,D2 PAM,CtBP-E1A blk,Six1-Eya2 blk,gsp agonist
Cc1ccc(N2CC(C(=O)N3CCC(C(=O)NC(C)(C)C)CC3)CC2=O)cc1 (configuration not stated),-5%,-2.8,-3,0,-1,6%
Cc1ccc(C(c2c(C)[nH][nH]c2=O)c2c(C)[nH][nH]c2=O)cc1[N+](=O)[O-],7%,-6.3,-18,3,-9,17%

# Entries of single compounds, quoted from the list.
# COC(=O)c1ccccc1OCc1cccc(C)n1 is entered as gsp antag = 6%; D2 ag = -1.5; D2 PAM = -12; CtBP-E1A blk = -1; Six1-Eya2 blk = 0; gsp agonist = -3%
# O=C1Oc2ccccc2C(=O)/C1=C\N1CCN(c2ccccc2)CC1 is entered as gsp antag = -26%; D2 ag = -1.1; D2 PAM = -11; CtBP-E1A blk = 5; Six1-Eya2 blk = 7; gsp agonist = 34%[15.4 µM]
# O=C(NCc1ccc(C(F)(F)F)cc1)C1CC(c2c(Cl)cccc2Cl)=NO1 (configuration not stated) is entered as gsp antag = 6%; D2 ag = 1.5; D2 PAM = -6; CtBP-E1A blk = 5; Six1-Eya2 blk = 5; gsp agonist = ?

# New compounds follow.
SMILES,gsp antag,D2 ag,D2 PAM,CtBP-E1A blk,Six1-Eya2 blk,gsp agonist
CC1CN(C2CCN(C(=O)COc3ccc(Cl)cc3)CC2)CC(C)O1 (configuration not stated),12%,-3.3,26,8,-6,-2%
CC(=O)Nc1ccc(NC(=S)NC(=O)/C=C/c2ccc(Cl)cc2)cc1,7%,-3.0,-6,0,0,-11%[15.4 µM]
Nc1nc2c(nc(SCc3ccccc3Br)n2[C@@H]2O[C@H](CO)[C@@H](O)[C@H]2O)c(=O)[nH]1,7%,4.4,3,-4,-10,-4%
CCCCCc1nnc(NC(=O)C(=O)OCC)s1,-10%,-1.9,-4,-1,3,3%
Cc1cc(NC(=O)CCl)n(-c2nc3ccccc3s2)n1,9%,-1.4,-3,0,3,-5%
CCc1ccc(N2C(=O)C3NN=C(C(=O)OCc4ccccc4)C3C2=O)cc1 (configuration not stated),2%,-3.2,-1,-6,1,1%[15.4 µM]
CCCC(C(=O)O)n1c(O)c(C=C2N=c3ccccc3=N2)sc1=S (configuration not stated),-11%,0.9,-3,?,-10,-40%[inhibitor]
CC(C)Nc1ncnc2c1ncn2[C@H]1CN(Cc2cccnc2)C[C@@H](CO)O1,.,4.6,-4,-20,6,.
COc1cc(-c2nnc3n2CCCCC3)cc(OC)c1OC,10%,5.4,1,-5,-7,9%
COc1ccc(CCNC(=O)CSc2nn(-c3ccccc3)c(=S)s2)cc1OC,-26%,-0.9,-12,8,-8,3%
O=C(NCCN1CCOCC1)c1cccs1,-1%,-1.1,-7,3,0,-35%[inhibitor]
Cc1cnc(C(=O)OCc2csc(CC(=O)Nc3ccccc3C)n2)cn1,9%,-0.3,-12,-3,9,-16%
